# Compound activity as filed in PubChem.
# eIF4H inh: inhibitors of RNA binding by human eIF4H; Q15056; eIF4H fluorescence polarization binding assay; inhibition, % at 35 µM; 290,000 compounds, 0.94% hits; AID 2012;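 active = 50% or more with normal probe brightness, or confirmed in later tests; about a fifth of its hits are not listed in these tables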;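 also: calls also rest on retests at 20 µM and on dose response follow-up; 0% = protein and probe with vehicle and 100% = probe without protein; strong numbers were not always called active; many hits fall short of the cut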
# HIV Env fusion: inhibitors of HIV Env-mediated cell fusion; HeLa-JRFL Env/CEM21 cell fusion, luciferase; inhibition, % at 12.3 µM; 360,000 compounds, 1.1% hits;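 active = mean replicate inhibition score of at least 50 and every replicate individually at or above 50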;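 also: 0% = plate neutral controls and 100% = maraviroc near 300 nM; one replicate is shown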
# Rce1 inhib: yeast Ras-converting enzyme inhibition. 290,000 compounds, 0.27% hits. yeast membranes, quenched prenylated peptide cleavage fluorescence. Q03530. calls only;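 active = fall in fluorescence gain of 50% or more versus controls, with final raw signal at or below 3038400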;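 also: plate controls were neutral control wells for no effect and wells lacking membranes for full effect; tested at 10 µM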
# Target sequence (Q03530 whole entry, looked up): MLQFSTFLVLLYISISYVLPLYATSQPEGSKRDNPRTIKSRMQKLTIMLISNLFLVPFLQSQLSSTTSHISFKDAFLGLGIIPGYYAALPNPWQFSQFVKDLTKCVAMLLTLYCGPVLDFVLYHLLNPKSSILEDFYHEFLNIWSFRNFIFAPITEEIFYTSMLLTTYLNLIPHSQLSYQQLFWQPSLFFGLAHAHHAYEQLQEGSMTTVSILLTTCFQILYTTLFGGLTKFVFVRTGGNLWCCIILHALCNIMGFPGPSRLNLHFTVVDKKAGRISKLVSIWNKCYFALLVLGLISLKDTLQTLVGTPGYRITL
# UUG fidelity: modulators of start codon recognition fidelity in yeast. S. cerevisiae UUG-firefly luciferase reporter, luminescence/redox ratio. activity score, % at 18.7 µM. 350,000 compounds, 0.13% hits. AID 602363;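 active = replicate mean at a twofold rise or more, about +100% in these data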;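 also: firefly luciferase made from a UUG start codon reports start codon fidelity; reporter light over untreated wells divided by growth signal over untreated wells; some hits fall short of that in this replicate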
# PABP FP inh: blocks human PABP binding to poly(A) RNA; 290,000 compounds, 1% hits; fluorescence polarization; inhibition, % at 35 µM; AID 2014;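 active = 50% or more with normal probe brightness, or confirmed in later tests; about a fifth of its hits are not listed in these tables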;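 also: calls also rest on retests at 20 µM and on dose response follow-up; controls were probe without protein and protein plus probe with vehicle; some compounds called inactive have numbers as strong as hits; many hits fall short of the cut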
# CSC inhib: blocks cancer stem cells | AID 2717 | cancer stem cell-like cells viability, luminescence | 300,000 compounds, 1.1% hits | inhibition, % at 7.5 µM;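 active = mean at 75% or more and at least half the replicates too; tested in HMLE shEcad cells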;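 also: 0% = median of negative and 100% = median of positive control wells; the first replicate is given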
# MT1-MMP act inh: MT1-MMP (human) activation inhibition | HT1080 RFP-PRO-GFP cells, GFP/RFP ratio fluorescence, overnight; percent of plate control window, DMSO zero | GFP/RFP ratio change, % at 20 µM | 360,000 compounds, 0.061% hits | AID 651647;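 active = GFP/RFP ratio change of at least 30% with cell ATP level not reduced by more than half and red fluorescence within 50% of control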; also: strong numbers were not always called active
#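 Read-out: GFP/RFP fluorescence ratio; Test system: RFP-PRO-GFP reporter HT1080 cells; Compound dosing: single-point 20 µM compound, 1% DMSO; Times: overnight compound exposure at 37 °C.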
# eIF4H inh retest: further read-out of eIF4H inh, marked with its call; inhibition, %; compound at 20 µM; confirmation average;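 mean of two retest wells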
# PABP FP inh retest: further read-out of PABP FP inh, marked with its call; inhibition, %; compound at 20 µM; confirmation repeats;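 mean of two retest wells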
# MT1-MMP act inh RFP: also measured in MT1-MMP act inh; calls as there; RFP signal change, %; measured here: RFP expression control read;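 0 = vehicle wells; hits needed this value within 50% of zero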
# * hit, by the source's call; i = inactive; x = not tested or not shown; & = joins results of further samples; [ ] = remark or other dose.
SMILES,eIF4H inh,HIV Env fusion,Rce1 inhib,UUG fidelity,PABP FP inh,CSC inhib,MT1-MMP act inh,MT1-MMP act inh RFP,others
CC(=O)Oc1ccc(N2C(=O)c3cccc4c([N+](=O)[O-])ccc(c34)C2=O)cc1,16,-77,i,-27,24,38,-138,-2,
O=C(CC1CCS(=O)(=O)C1)Nc1ccc[nH]c1=O (centres undefined),8,-20,i,-10,-2,-11,1,5,
CC1(NC(=O)Cc2csc(-c3cccc(Cl)c3)n2)CCS(=O)(=O)C1 (centres undefined),x,9,x,-11,x,-2,-1,0,
CC(C)Nc1ncnc2c1ncn2[C@H]1CN(Cc2ccccc2)C[C@@H](CO)O1,x,-9,x,-10,x,x,-2,3,
Cc1cc(S(=O)(=O)N2CCN=C2c2ccccc2)c(Cl)cc1Cl,11,-9,i,x,-5,-7,2,6,
Cc1ccccc1OCCSc1nnc(-c2ccncc2)n1C,-8,x,i,-9,-3,11,8,2,
COc1ccccc1N1CCN(S(=O)(=O)CCNC(=O)CC2CCCC2)CC1,x,7,x,-15,x,x,3,-1,
Oc1cccc(/C=N/Nc2ccc(Cl)nn2)c1O,24,31,i,-39,17,65,1,-8,
C=CCn1c(SC(C)C(N)=O)nc2sc(CC)cc2c1=O (centres undefined),0,15,i,x,-6,x,1,2,
CC(C)(C)c1ccccc1NC(=O)c1cccnc1,-1,x,i,x,-4,x,2,-2,
C=CCc1ccccc1OCC(O)CNC(C)C (centres undefined),22,-20,i,-10,-13,x,6,6,
COc1ccccc1NC(=O)c1cc(C(=O)Nc2ccccc2OC)cc([N+](=O)[O-])c1,-7,3,i,-16,-7,-3,1,0,
O=C(COc1ncnc2ccccc12)Nc1ccc(Cl)c([N+](=O)[O-])c1,0,5,i,x,0,-3,7,1,
S=C(NCCN1CCOCC1)N/N=C/c1ccccc1,15,-76,x,-6,-3,-5,8,8,
CCOC(=O)C1(CCOc2ccccc2)CCN(Cc2ccc(OC)c(COC)c2)CC1,13,41,i,-15,6,x,-2,-20,

# Random excerpt: three compounds from above
SMILES,eIF4H inh,HIV Env fusion,Rce1 inhib,UUG fidelity,PABP FP inh,CSC inhib,MT1-MMP act inh,MT1-MMP act inh RFP,others
CC(=O)Oc1ccc(N2C(=O)c3cccc4c([N+](=O)[O-])ccc(c34)C2=O)cc1,16,-77,i,-27,24,38,-138,-2,
COc1ccccc1NC(=O)c1cc(C(=O)Nc2ccccc2OC)cc([N+](=O)[O-])c1,-7,3,i,-16,-7,-3,1,0,
CCOC(=O)C1(CCOc2ccccc2)CCN(Cc2ccc(OC)c(COC)c2)CC1,13,41,i,-15,6,x,-2,-20,

# Next section.
SMILES,eIF4H inh,HIV Env fusion,Rce1 inhib,UUG fidelity,PABP FP inh,CSC inhib,MT1-MMP act inh,MT1-MMP act inh RFP,others
Cc1cc(NC(=O)Nc2cc(C)nn2-c2ccccc2)n(-c2ccccc2)n1,-2,x,i,-1,-8,0,4,5,
O=C(COc1ccc([N+](=O)[O-])cc1Cl)Nc1ccc2[nH]c(=O)[nH]c2c1,x,-3,x,0,x,-9,4,1,
Cc1nn(C)cc1CN(C)C(=O)c1cc(-c2ccccc2)nc2ccc(Br)cc12,-7,21,i,-5,-2,3,0,-5,
O=C(NNC(=S)Nc1ccc(F)cc1)C1[C@H]2CCCC[C@@H]12 (some centres undefined),7,4,i,-23,3,-2,3,0,
O=[N+]([O-])c1ccccc1CN1CCN(Cc2c[nH]c3ccccc23)CC1,-2,7,i,x,1,-7,x,x,
C=C(C)c1cccc(C(C)(C)NC(=O)N2CCCC(C)C2)c1 (centres undefined),-10,x,i,-11,-3,-3,3,-1,
C[C@H](CO)N1C[C@H](C)[C@@H](CN(C)S(C)(=O)=O)Oc2ccc(NC(=O)Cn3cnnn3)cc2C1=O,x,-25[16.7 µM],x,-16&-12,x,x,1,7,
Cc1ccc(-n2nc3c(=O)n(CC(=O)NCc4ccccc4Cl)nc(C)c3c2C)cc1,-13,6,i,-7,-4,-10,3,-10,
COc1ccc(C(=O)Nc2nc(C)cc(C)n2)cc1,2,-4,i,x,7,-11,2,3,
C#CCOCCOCCOCCNc1nc(N2CCN(C(=O)[C@H](CCCCN)n3cc(CN)nn3)CC2)nc(N2CCN(C(=O)[C@H](CC(N)=O)n3cc(C(N)[C@H](C)CC)nn3)CC2)n1 (some centres undefined),x,5,x,62,x,x,-5,1,
Cc1cccc(OCc2nnc(SCC(=O)Nc3cccc(C(=O)N4CCOCC4)c3)n2C)c1C,-3,x,i,x,4,6,-4,-5,
CC1=NN(c2ccc(Cl)cc2)C(=O)/C1=C\c1cccn1-c1ccc(S(N)(=O)=O)cc1,-5,4,i,x,-9,-1,7,-8,
CCN(Cc1ccccc1)C(=O)COc1ccccc1,0,-4,i,-22,4,-17,0,-2,
Cc1ccc(S(=O)(=O)N2CCOCC2)cc1C(=O)OCc1nnc(-c2ccccc2)o1,x,4,i,-14,x,-11,3,0,
O=C(CSc1ccc2nnc(-c3ccccn3)n2n1)NCc1ccco1,6,11,i,-24,-6,7,0,1,
O=C(N/N=C/c1ccncc1)c1ccccc1[N+](=O)[O-],0,2,i,x,-10,-9,0,-1,
CCC(c1nnnn1Cc1ccco1)N(CCc1ccccc1)Cc1cc2cc(C)ccc2[nH]c1=O (centres undefined),34,x,i,-13,61,8,-14,-5,eIF4H inh retest=4;PABP FP inh retest=26
O=C(/C=C/C=C/c1ccccc1)CC1(O)C(=O)N(CCc2ccccc2)c2ccccc21 (centres undefined),-3,x,i,x,-6,15,0,-1,
O=C(COC(=O)COc1ccc(Cl)cc1)NC1CCCC1,x,x,x,-14,x,7,-3,1,
O=C(Cn1nc(C(=O)O)c2ccccc2c1=O)Nc1cc(Cl)ccc1-n1cncn1,x,-13,x,-18,x,x,-1,3,
O=[N+]([O-])c1ccc(CN2CCSCC2)cc1,4,2,i,x,-3,-7,9,4,
C=CCC[C@H](Cc1ccc(F)cc1)C(=O)OC[C@@H](NC(=O)[C@H](CC=C)CC(=O)NCCO)C(C)(C)C,x,90*,x,11,x,0,3,0,
N#Cc1cnn2c1nc(N1CCCCC1)c1ccccc12,21,42,i,-15,7,15,-20,-16,
OCC1(Cc2ccccc2)CCN(C2CCN(c3ccccc3F)CC2)CC1,3,6,i,x,-1,34,x,x,
Cn1cnc(S(=O)(=O)Nc2ccc3c(c2)OCCO3)c1,-4,-10,i,-1,9,-13,-1,3,
Cc1ccc(C)c(-c2nc3cc(N)ccc3o2)c1,-12,x,i,x,-8,22,-1,-1,
COc1ccc(/C=N/NC(=O)COc2ccccc2-c2ccccc2)cc1,-16,-204,i,-5,-1,-12,12,-8,
COCCNC(=O)C(C)N(c1ccc(OC)cc1)S(C)(=O)=O (centres undefined),0,-47,i,-21,-3,-3,-6,-9,
CCC(=O)NCCc1nc2cc(NC(=O)c3ccco3)ccc2n1C,-6,-30,i,-18,12,0,1,1,
CCn1c(SCC(=O)Nc2ccc3c(c2)OCO3)nnc1C(C)C,3,1,i,-13,1,x,-1,0,
O=C(NCCc1cccc(F)c1)C1CCC(=O)N(CCCc2ccccc2)C1 (centres undefined),-8,-5,i,16,0,-2,-1,-1,
CCc1sc(C(=O)Nc2ccc3nc(C)sc3c2)cc1C,x,-10,x,-10,x,37,5,3,
Cc1nnsc1NC(=O)OCC(C)(C)C,-1,x,i,-12,-7,-1,5,4,
CCN(CC)C(=O)CSc1ncnc2sc(C)c(C)c12,-1,14,i,x,2,-5,2,-1,
CSc1nc(C)cc(Oc2ccccc2)n1,13,-1,i,x,4,-11,2,3,
CN(CC(=O)Nc1ccc(F)c(F)c1F)C(=O)c1ccc2c(c1)S(=O)(=O)N=C1CCCCCN12,x,-6,i,x,x,-2,1,4,
COc1ccc2oc(C(=O)OCC(=O)NC3CCCCC3)c(C)c2c1,x,x,i,-21,x,-7,8,0,
CC(=O)Nc1nc2ccc(Br)cc2s1,46,-15,i,-16,19,6,-2,-6,
CC(Nc1nc(Nc2ccc(F)cc2)nc(SCC(N)=O)n1)c1ccccc1 (centres undefined),-10,0,i,-1,2,-7,0,-5,
CC(=O)Oc1ccc(N2C(=O)CC(N3CCOCC3)C2=O)cc1 (centres undefined),-18,x,i,-9,13,-5,2,3,
O=C(CCl)N(Cc1cccc([N+](=O)[O-])c1)c1cccc(Cl)c1,-5,26,i,x,-15,x,-1,0,
CCN(CC)S(=O)(=O)c1cccc(C(=O)NC(Cc2c[nH]c3ccccc23)c2nnc3n2CCC3)c1 (centres undefined),-3,x,i,-23,1,6,1,-3,
Cc1ccccc1C(=O)N1CCC(C(=O)N(CC(C)C)c2c(N)n(Cc3ccccc3)c(=O)[nH]c2=O)CC1,x,x,i,-7,x,-14,0,3,
CC(C)C(=O)NNc1nc2ccccc2s1,-11,x,i,-15,9,-10,2,-3,
CC(C)/C(C=O)=C(/NC1CCCCC1)c1ccccc1,x,8,i,-2,x,4,3,-1,

# Brought forward from above: 2 compounds; new compounds follow.
SMILES,eIF4H inh,HIV Env fusion,Rce1 inhib,UUG fidelity,PABP FP inh,CSC inhib,MT1-MMP act inh,MT1-MMP act inh RFP,others
CC(C)C(=O)NNc1nc2ccccc2s1,-11,x,i,-15,9,-10,2,-3,
CC(C)/C(C=O)=C(/NC1CCCCC1)c1ccccc1,x,8,i,-2,x,4,3,-1,
Cc1ccc(S(=O)(=O)N2CCC(C(=O)N3CCC[C@H]3C(=O)NCC(C)C)CC2)cc1,x,-6,i,-5,x,-16,0,-1,
CC1CCN(C(=O)C(C)OC(=O)CSc2ccc([N+](=O)[O-])cc2)CC1 (centres undefined),x,-11,x,x,x,-15,-4,2,
Cn1cccc1-c1nc2ccccc2n1Cc1ccccc1,-5,x,i,-17,-4,88*,-3,-2,
Cc1ccc(C2(c3ccccc3)NC(=O)N(CC(=O)NCc3ccccc3)C2=O)cc1C (centres undefined),x,1,x,-5,x,x,1,-5,
O=S(=O)(NCC1CCCO1)c1ccc(S(=O)(=O)N(Cc2ccc(F)cc2)Cc2ccccn2)cc1 (centres undefined),-2,-43,i,x,2,4,-2,-3,
Cc1ccc(-c2nnc3ccc(SCC(=O)N4CCCc5ccccc54)nn23)cc1,24,13,i,x,-4,-23,-12,-5,
O=C(C1CCN(S(=O)(=O)N2CCOCC2)CC1)N1CCN(c2ccc(F)cc2)CC1,2,-11,i,14,-11,-8,10,-12,
O=C(C[n+]1ccccc1)Nc1ccc(Cl)c([N+](=O)[O-])c1,-1,-6,i,-13,-1,-11,-1,2,
O=C(NCCc1ccccc1)c1cc(-c2ccco2)on1,76,x,i,0,15,58,-2,10,eIF4H inh retest=-12;PABP FP inh retest=1
Cn1ccc(C(=O)OCC(=O)Nc2ccccc2)n1,0,1,i,-8,-3,x,-1,3,
Cc1ccc(-c2noc(CN(C(=O)CCCCCN3C(=O)c4ccccc4C3=O)C(C)C)n2)cc1,-3,x,i,4,-6,5,-9,-15,
CCOc1cc(-c2cc(N)n[nH]2)cc(OCC)c1OCC,-7,-64,i,-12,1,-11,-1,5,
COc1ccccc1NC(=O)/C=C\C(=O)O,-5,13,i,-11,-13,2,1,5,
COc1c(C(C)C)oc2cc3oc(=O)ccc3cc12,2,-35,i,x,-5,1,-4,1,
CC(C)=CCC(C)(C)C1OCCN1C(=O)Nc1ccccc1 (centres undefined),0,-52,i,-24,-4,-4,1,2,
CC(C)c1ccc(COC(=O)CN2C(=O)NC3(CCCCC3C)C2=O)cc1 (centres undefined),x,18,x,10,x,x,-2,-2,
CCCCNC(=O)C1CCC(CNc2c(N3CCC(C)CC3)c(=O)c2=O)CC1 (centres undefined),9,9,i,x,21,-2,0,0,
COc1ccc(C(C[N+](=O)[O-])c2c(-c3ccccc3)cc3ccccn23)c(OC)c1 (centres undefined),17,1,i,-11,2,-8,-11,-3,
Brc1ccc2[nH]c3nc(SCCN4CCOCC4)nnc3c2c1,-12,-21,i,-16,10,-11&-5,-3&3,-15&-11,

# Some of the compounds tested (hit frequency here may not be typical).
